Source: PubChem (several laboratories)
LANA-H2B inh – blocks KSHV LANA binding to histone H2A/H2B; Q9QR71; cell-free LANA-H2A/H2B peptide, fluorescence polarization; inhibition, % (test concentration not listed); 0.6% of 320,000 active; AID 2629; in the data active = inhibition mostly above about 10%, no sharp cut-off; inactive = mostly below about 6.7%;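 note: stock transfer was 7.5 nL into about 10 µL; 0% = median of vehicle wells and 100% = median of positive control wells; one replicate is shown; the record names a cut of 25% in any replicate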
Target sequence (Q9QR71 whole entry, looked up): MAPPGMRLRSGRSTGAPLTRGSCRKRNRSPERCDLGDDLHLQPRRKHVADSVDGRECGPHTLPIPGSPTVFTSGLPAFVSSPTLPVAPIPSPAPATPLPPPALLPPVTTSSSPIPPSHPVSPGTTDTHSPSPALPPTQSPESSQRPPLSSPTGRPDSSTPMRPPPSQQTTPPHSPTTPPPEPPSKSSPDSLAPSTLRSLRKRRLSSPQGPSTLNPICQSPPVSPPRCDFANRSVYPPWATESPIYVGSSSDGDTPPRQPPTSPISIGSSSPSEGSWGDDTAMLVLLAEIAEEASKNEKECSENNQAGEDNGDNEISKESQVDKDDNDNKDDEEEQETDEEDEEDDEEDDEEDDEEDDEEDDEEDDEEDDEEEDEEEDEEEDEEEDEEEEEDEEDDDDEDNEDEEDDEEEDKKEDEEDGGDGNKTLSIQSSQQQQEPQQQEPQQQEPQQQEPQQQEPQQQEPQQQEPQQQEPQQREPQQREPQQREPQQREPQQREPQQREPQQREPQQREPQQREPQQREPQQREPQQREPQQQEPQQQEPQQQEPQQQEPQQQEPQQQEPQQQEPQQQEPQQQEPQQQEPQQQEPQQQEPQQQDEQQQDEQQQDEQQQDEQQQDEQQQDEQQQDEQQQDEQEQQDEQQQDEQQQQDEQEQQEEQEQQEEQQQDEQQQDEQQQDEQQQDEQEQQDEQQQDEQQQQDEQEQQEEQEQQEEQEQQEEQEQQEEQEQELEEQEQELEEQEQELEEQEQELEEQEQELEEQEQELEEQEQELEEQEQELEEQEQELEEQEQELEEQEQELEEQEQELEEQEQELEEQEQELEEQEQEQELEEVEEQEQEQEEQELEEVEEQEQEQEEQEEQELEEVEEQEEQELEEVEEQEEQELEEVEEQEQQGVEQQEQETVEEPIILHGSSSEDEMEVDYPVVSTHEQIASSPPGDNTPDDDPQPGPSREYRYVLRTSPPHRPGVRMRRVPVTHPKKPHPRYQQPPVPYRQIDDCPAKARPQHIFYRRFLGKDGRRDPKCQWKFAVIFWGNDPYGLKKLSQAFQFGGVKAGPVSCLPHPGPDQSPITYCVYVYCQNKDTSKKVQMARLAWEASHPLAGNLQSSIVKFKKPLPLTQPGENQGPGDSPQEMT
RanGTP-Impb inh – disruptors of Ran-importin-beta complex formation – biochemical, FRET, CFP-Ran, YFP-importin-beta, homogeneous, primary screen; cell-free CFP-Ran/YFP-importin-beta FRET ratio; inhibition, % (concentration not given with the values); AID 2216; 1.1% of 300,000 active;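 active = most replicates above 15%; inconclusive = exactly half above 15%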;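 note: 0% = DMSO wells and 100% = Ran loaded with GDP instead of GTP; wells of about 40 µL received 100 nL stock; the first replicate is given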
Beta2AR agonist – human beta-2 adrenergic receptor agonism by FAP | Am2.2-beta2AR cells, FAP receptor internalization, flow cytometry; reference of the scale not given here | response, % (test concentration not listed) | 0.43% of 340,000 active;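 active = response above a set limit, near 3 SD of response in nonfluorescent compounds, cut at about 42% in these data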;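 note: stock transfer was 100 nL into about 11 µL; a reference agonist was the positive control; negative values mostly stem from fluorescent compounds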
UCH37 DUB inh – inhibitors of human deubiquitinating enzyme UCH37 | Q9Y5K5 | purified proteasome/UCH37, Ub-AMC cleavage fluorescence | inhibition, % (concentration not given with the values) | 0.33% of 330,000 active;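 active = mean of two replicates above 20%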;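 note: 0% = compound-free wells with enzyme and 100% = wells lacking proteasome; stock transfer was 100 nL into about 20 µL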
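System: Proteasome-associated human UCH37 deubiquitinase; Input: 0.15 nM proteasome in added enzyme buffer; Also added: Ub-AMC substrate from 1 µM stock; Incubation: 30 min compound-proteasome preincubation then 25 min substrate reaction, room temperature; Detection: fluorescence, ex 355 nm, em 460 nm; Read-out: % inhibition of Ub-AMC cleavage fluorescence; Benchmarks: no-proteasome and no-compound wells.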
T cruzi repl – blocks replication of Trypanosoma cruzi. T. cruzi beta-gal in NIH3T3, luminescence, 90 h. inhibition, % (no concentration beside the values). 1.4% of 300,000 active;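 active = mean inhibition across valid replicates above about 55%, limit read from the data; inconclusive = mean below that limit but half or more replicates reach it; inactive = mean below it, under half of replicates reach it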;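 note: signal also drops with host cell toxicity which is not excluded here; 0% = plate median of DMSO wells and 100% = zero luminescence signal; higher percent means less beta-gal luminescence so fewer parasites; stock transfer was 50 nL into about 50 µL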
Calb FLC – C. albicans growth modulation with fluconazole; C. albicans CaCi-2 (fluconazole-resistant clinical isolate) + fluconazole, Alamar Blue growth, 48 h; growth inhibition, % (concentration not given with the values); 0.57% of 300,000 active;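 active = most replicates above 75%; inconclusive = exactly half above 75%; inactive = most below 75%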;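 note: all wells also contain fluconazole at 8 µg/ml as a sub-toxic cotreatment; 0% = median of DMSO wells and 100% = median of geldanamycin control wells; wells of about 8 µL received 7.5 nL stock; the first replicate is given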
A1 inh – inhibitors of the anti-apoptotic protein A1, read as caspase activation; AID 2462; caspase activation, % (concentration not given with the values); MEF A1-2A-BIM cells, Caspase-Glo 3/7 luminescence, 3 h; percent of clofoctol response, vehicle zero; 0.066% of 330,000 active;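 active = over half of replicate activation scores above 10%, or exactly half above 10 with the replicate mean above 10; inconclusive = replicate mean below 10 yet half the replicates above 10; inactive = over half of replicates below 10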;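 note: wells of about 30 µL received 50 nL stock; many hits fall short of the cut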
Beta cell apopt – beta cell apoptosis inhibition; INS-1E cytokine-induced death, ATP luminescence, 48 h; percent of positive-control rescue, neutral wells zero; protection from apoptosis, % (concentration not given with the values); AID 435005; 0.8% of 300,000 active;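 active = all replicates at 75% or more, or half of them and the mean; inconclusive = half reach 75% but not the mean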;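 note: 0% = cytokine-treated negative control wells and 100% = positive control rescue; higher means more ATP so stronger rescue from cytokine killing; wells of about 40 µL received 100 nL stock; the first replicate is given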
An asterisk follows results filed as active; ? = inconclusive; nt = no result given.

mol	T cruzi repl	Beta cell apopt	A1 inh	Beta2AR agonist	LANA-H2B inh	UCH37 DUB inh	RanGTP-Impb inh	Calb FLC
O=C(c1ccco1)n1c(=S)nc2ccccn21	-4	-5	-4.6	-10	-3.6	3.8	-0.1	3
CC(=O)Nc1ccc(C2Nc3ccccc3C(=O)N2C2CCCCC2)cc1 (stereo not given)	2	6	0.9	-23	0.6	-415	-0.1	-11
Cc1cccc(C)c1NC(=O)CN(C)C(=O)CCc1nc2sc3c(c2c(=O)[nH]1)CCCC3	nt	-4	-1.0	-6	1.6	-3.0	nt	nt
O=[N+]([O-])c1ccc(NCCNc2ccc(Cl)nn2)cc1	-7	0	-1.4	-8	4.4	5.9	-2.2	2
C[N+](C)(C)c1ccc(/C=N/Nc2nc(Cl)c(C#N)c(Cl)c2Cl)cc1	-10	-7	-0.6	9	54*	nt	-0.4	5
Cc1ccc(C(=O)CN2C(=O)c3ccccc3S2(=O)=O)cc1	-1	-2	-2.7	-4	-0.4	nt	-0.7	-1
c1ccc2nc3c(cc2c1)CCCCC3	-13	-5	-1.2	-7	4.6	2.8	-0.4	-3
CCN(CC)Cc1c(CC(C)C)oc(C)c1C(=O)O	6	-2	-0.3	4	-2.0	-1.6	21*	4
O=[N+]([O-])c1ccc(S(=O)(=O)Nc2nc(-c3ccccc3)cs2)cc1	15	nt	0.1	6	-0.1	2.2	5.1	27
COc1ccc(OC2CCN(S(=O)(=O)c3ccc(F)cc3)CC2)cc1	6	-2	1.7	-7	5.2	2.0	2.0	8
CC(C)C(NC(=O)c1ccccc1)C(=O)OCC(=O)N1CCCCC1 (stereo not given)	nt	0	-1.4	-2	-6.3	2.1	nt	nt
COc1ccc(C(=O)NCCS(=O)(=O)NCc2ccco2)cc1	-3	nt	-3.7	-1	2.0	3.0	?	-2
O=C(O)c1ccccc1NC(=S)NC(=O)c1cccc2ccccc12	4	2	0.2	-1	-10	6.3	-6.0	-5
COC(=O)c1c(F)c(F)c(N2CCOCC2)c(F)c1F	-1	4	-0.1	3	7.3	2.7	-3.1	12
CC(NC(=O)c1cc(S(=O)(=O)N2CCCC2)ccc1Cl)c1ccccn1 (stereo not given)	nt	4	0.2	-5	0.0	3.2	nt	nt
Cc1cccc(-n2nc3c(c2NC(=O)c2c(F)cccc2F)CS(=O)(=O)C3)c1C	-10	nt	0.2	-1	2.0	0.1	0.9	-2
CNCCC(=O)N1c2ccccc2CCc2ccc(NC(=O)OC)cc21	-7	-5	-0.9	12	2.5	1.1	4.1	1
COC(=O)c1ccc(COc2ccc(/C=N/NC(N)=S)cc2)o1	55*	1	0.9	11	2.3	nt	4.4	46
CC1CN(C)C(C)c2c1oc1ccc(N)cc21 (stereo not given)	2	0	0.1	10	-0.5	0.3	2.1	9
CCC(=O)c1ccc(N2CCCCC2)c(F)c1	-2	1	-0.9	1	-7.9	3.6	-2.8	-9
CN1/C(=C\C=N\NC(=O)c2ccccc2Br)C(C)(C)c2ccccc21	18	57	0.0	7	nt	nt	2.2	-1
Cc1cccc(-n2c(SCC(=O)NCc3ccc4c(c3)OCO4)nc3ccccc3c2=O)c1	29	0	-1.1	0	-4.6	1.0	0.4	-15
C[C@H](NS(=O)(=O)c1ccc(Cl)cc1)C(=O)OCC(=O)NC(=O)Nc1ccc2c(c1)OCCO2	3	5	-1.7	-2	18	4.0	2.5	3
Cc1ccccc1NC(=O)NC1CCCCCCC1	-5	1	-0.7	-11	0.4	1.1	2.1	-15
Fc1ccc(-c2cc(-c3ccccc3)nc(-n3cccn3)n2)cc1	16	17	0.0	13	-4.1	3.1	2.3	12
COc1ccc(Cl)cc1NC(=O)Cc1c(F)cccc1Cl	4	2	0.0	1	-1.1	2.6	5.0	6
Cc1cc(NC(=O)NC(=O)c2ccccc2)no1	-19	nt	-1.6	-16	4.3	0.0	-4.3	7
Cc1nc2ccccc2nc1SCC(=O)N1CCC(C)CC1	-11	5	0.3	1	3.9	1.1	3.6	2
COc1ccc2nc(-c3ccccn3)[nH]c2c1	-6	8	-9.6	-4	0.5	-31	0.3	1
Cc1cccc(N2CCN(C(=O)c3ccc4ccccc4c3)CC2C)c1 (stereo not given)	nt	-11	2.3	-5	6.4	1.3	nt	nt

4 entries from above, with each value named.
Structure: COc1ccc(C(=O)NCCS(=O)(=O)NCc2ccco2)cc1
  T cruzi repl: -3	Beta cell apopt: nt	A1 inh: -3.7	Beta2AR agonist: -1	LANA-H2B inh: 2.0	UCH37 DUB inh: 3.0	RanGTP-Impb inh: ?	Calb FLC: -2
Structure: Cc1nc2ccccc2nc1SCC(=O)N1CCC(C)CC1
  T cruzi repl: -11	Beta cell apopt: 5	A1 inh: 0.3	Beta2AR agonist: 1	LANA-H2B inh: 3.9	UCH37 DUB inh: 1.1	RanGTP-Impb inh: 3.6	Calb FLC: 2
Structure: Cc1cc(NC(=O)NC(=O)c2ccccc2)no1
  T cruzi repl: -19	Beta cell apopt: nt	A1 inh: -1.6	Beta2AR agonist: -16	LANA-H2B inh: 4.3	UCH37 DUB inh: 0.0	RanGTP-Impb inh: -4.3	Calb FLC: 7
Structure: COc1ccc(OC2CCN(S(=O)(=O)c3ccc(F)cc3)CC2)cc1
  T cruzi repl: 6	Beta cell apopt: -2	A1 inh: 1.7	Beta2AR agonist: -7	LANA-H2B inh: 5.2	UCH37 DUB inh: 2.0	RanGTP-Impb inh: 2.0	Calb FLC: 8

By substructure: the entries above containing a nitro group on carbon
mol	T cruzi repl	Beta cell apopt	A1 inh	Beta2AR agonist	LANA-H2B inh	UCH37 DUB inh	RanGTP-Impb inh	Calb FLC
O=[N+]([O-])c1ccc(NCCNc2ccc(Cl)nn2)cc1	-7	0	-1.4	-8	4.4	5.9	-2.2	2
O=[N+]([O-])c1ccc(S(=O)(=O)Nc2nc(-c3ccccc3)cs2)cc1	15	nt	0.1	6	-0.1	2.2	5.1	27

Following part
mol	T cruzi repl	Beta cell apopt	A1 inh	Beta2AR agonist	LANA-H2B inh	UCH37 DUB inh	RanGTP-Impb inh	Calb FLC
CC(C)(C)C1CCC(=NNC(=O)CN(c2ccccc2)S(=O)(=O)c2ccccc2[N+](=O)[O-])CC1 (stereo not given)	7	-15	-0.7	-5	-1.7	5.3	1.1	16
O=C(Cc1ccsc1)N1CCN(S(=O)(=O)c2cccc(F)c2)CC1	3	2	-0.3	-1	-1.1	4.9	5.7	3
COC(=O)c1cc(S(=O)(=O)NCC2CCN(Cc3ccc(F)cc3)CC2)cn1C	3	0	-1.3	-18	3.5	3.6	-2.0	-14
COc1ccc(OCc2nnc(SCc3ccc(C(=O)O)cc3)o2)cc1	-13	nt	-0.9	-6	2.6	0.5	2.5	21
COc1ccc(NC(=O)CN(C)C(=O)C(C)Sc2ccccc2)cc1 (stereo not given)	2	0	0.1	-1	4.2	0.0	-6.2	6
CCN(CC(=O)NCc1ccccn1)S(=O)(=O)c1ccc(Cl)cc1	-5	-4	-0.9	3	5.0	1.8	0.8	-6
Cc1nc(-c2ccc(S(=O)(=O)Oc3ccccc3Cl)s2)cs1	31	13	-1.0	6	-0.7	1.7	?	-4
O=C(O)c1ccccc1N=N/C(=N/Nc1cc(S(=O)(=O)O)ccc1O)c1ccccc1	nt	26	-0.8	2	-0.3	nt	nt	nt
Cc1cc(N/N=C/c2ccccc2F)nc(NCc2ccccc2)n1	21	15	-1.0	4	1.7	nt	0.2	40
CCCCC(CC)C(=O)NCC(C)NC(=O)C(CC)CCCC (stereo not given)	-3	-5	-0.4	2	0.8	-0.4	0.6	-21
COc1ccccc1CNC(=O)C/C(C)=N/NC(=O)COc1ccc(C)cc1Br	-5	nt	-0.5	-11	0.5	nt	?	-9
CC(c1ccccc1)c1nnc(NC(=O)Nc2ccccc2F)s1 (stereo not given)	4	-3	0.1	5	-1.4	2.2	-0.4	0
OC1CCCN(CC(O)COc2ccc(-c3ccccc3)cc2)C1 (stereo not given)	14	-4	0.9	14	0.3	4.0	0.4	-2
CCc1ccc(-c2nc(SCC(=O)c3c(N)n(C)c(=O)n(C)c3=O)n[nH]2)cc1	nt	1	-1.2	-5	-6.3	-0.8	nt	nt
C=CCc1ccc(OC)c(OC)c1	-3	-11	0.2	1	-1.6	3.4	1.5	-5
CC(C)(C)OC(=O)NOCC(=O)N(Cc1ccccc1)CC(O)COc1ccccc1 (stereo not given)	-14	-1	0.0	2	-1.8	1.1	-0.2	-5
Cc1ccc(NC(=O)CN(C)C(=O)c2cccc(S(=O)(=O)NCc3ccccc3)c2)cc1	0	-2	-0.7	13	1.1	1.8	3.8	2
CCCCNC(=S)N(C)/N=C/c1ccccc1C(=O)O	5	-2	-0.5	3	1.4	nt	5.1	-3
COC(=O)c1ccc(COc2ccc(C3C4=C(CCCC4=O)Nc4onc(C)c43)cc2)cc1 (stereo not given)	-8	-6	-0.7	14	3.3	-3.8	-2.9	16
O=C(CSc1nnc(CNC(=O)c2ccccc2F)o1)NC1CCCCC1	40	-8	-1.3	-2	2.1	1.5	3.6	-3
O=C(CSc1ccc2nnc(-c3cccnc3)n2n1)NCC1CCCO1 (stereo not given)	-3	nt	nt	2	nt	-20	?	-4
CC1(C)CC(=O)C2=C(C1)NC(=O)CC2c1cc2c(cc1Br)OCO2 (stereo not given)	-8	-8	-0.9	-2	-3.1	-2.1	2.8	-3
COc1ccccc1/C=C/c1nc2ccc(OC(C)=O)cc2c(=O)o1	-6	0	-3.0	-12	3.3	-302	1.3	-3
COC(=O)c1sccc1NC(=S)N(C)C1CCCCC1	0	2	0.7	-1	-1.9	4.5	-0.9	-6
COc1cc(OC)cc(C(=O)Nc2ccccc2NC(C)=O)c1	2	-5	-0.3	-4	-0.1	-0.7	-3.0	-3
Cc1cnc(NC(=O)CSc2c(Cl)cccc2Cl)s1	3	-1	-0.8	-1	-5.1	1.9	3.7	49
O=[N+]([O-])c1ccc(Oc2cccc(Br)c2)c2ccncc12	25	3	1.0	5	-0.7	4.4	-1.5	4
CNS(=O)(=O)c1cccc(C(=O)OCC(=O)c2ccc3[nH]c(=O)[nH]c3c2)c1	nt	2	-0.6	2	5.5	3.0	nt	nt
CC(C)COc1ccc(Br)cc1CNC(C)(C)C	13	1	0.6	-8	-51	2.6	-0.6	0
Nc1nc(NCCOCCO)nc(NCc2ccccc2)c1[N+](=O)[O-]	-12	5	-0.3	-1	2.2	15	4.3	-3

Just RanGTP-Impb inh and Beta cell apopt, for some of the entries so far:
Compound	RanGTP-Impb inh	Beta cell apopt
O=C(CSc1ccc2nnc(-c3cccnc3)n2n1)NCC1CCCO1 (stereo not given)	?	nt
Cc1ccc(NC(=O)CN(C)C(=O)c2cccc(S(=O)(=O)NCc3ccccc3)c2)cc1	3.8	-2
O=C(Cc1ccsc1)N1CCN(S(=O)(=O)c2cccc(F)c2)CC1	5.7	2
CCN(CC(=O)NCc1ccccn1)S(=O)(=O)c1ccc(Cl)cc1	0.8	-4
COC(=O)c1cc(S(=O)(=O)NCC2CCN(Cc3ccc(F)cc3)CC2)cn1C	-2.0	0
C=CCc1ccc(OC)c(OC)c1	1.5	-11
